# TRPV1 potentiator = human TRPV1 potentiation. hit rate 0.02% among 320,000. AID 540277. TRPV1-expressing cells, Fluo-8 calcium influx, capsaicin EC20 potentiation; host cell line not named in the record; control for the full effect not named in the record. potentiation, % at 8.33 µM. Q8NER1; active means potentiation above 80%; inconclusive means 30% to 80%; inactive means below 30%; also: 0% is about no effect
#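 TRPV1-expressing cells were cultured overnight at 35.5C and loaded with Fluo-8 calcium dye for 40 to 90 min at room temperature. After a 10 s baseline, compound was added and calcium influx was read kinetically for 3 min (ex 480/em 520 nm).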
# PINK1 expr mod = modulators of PINK1 expression. AID 624263. Potency, µM (titrated, usually from 76.6 µM), without a hit: top-dose activation (PINK1 increase), actives largely listed as activators. PINK1 immunofluorescence, high-content cytometry, 24 h. hit rate 0.2% among 410,000; active = well fitted activation curve with a large enough effect; inconclusive = small, poorly fitted or top-dose-only effect; inactive = flat fitted curve, though single readings scatter; cell line not stated here;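 also: potency is read from the fitted curve at half-maximal effect; % of control where 0% means no effect; nearly all actives have a fitted effect of over 65% in size; a mitochondrial uncoupler was the plate control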
#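 Measures PINK1 amount and localization on or inside mitochondria by immunofluorescence. Stable cells get compounds at 5 concentrations for 24 hours before fixation and staining; CCCP controls included.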
# Six1-Eya2 inh = Six1/Eya2 interaction inhibition; AlphaScreen GST-Six1/His-Eya2 binding, biochemical; hits give low values; control for the full effect not named in the record; hit rate 0.56% among 360,000; activity change, % (test concentration not listed); Q15475+O00167; AID 651725; in the data active = activity change below about -65%; inconclusive = about -30% to -65%; inactive = above about -30%; also: % is scaled to controls: 0 for no effect and ±100 for the full control effect; compound concentration not given in the record
#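 Six1/Eya2 binding was read as AlphaScreen signal after compounds were pinned into GST-Six1 plus His-tagged Eya2 (5X stock 250/500 nM) in pH 8.0 Tris/NaCl/TCEP buffer, beads added, then incubated 1 h, 37 C, dark.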
# CtBP-E1A inh = blocks the CtBP interaction with E1A; activity change, % (test concentration not listed); AID 651724; hit rate 0.49% among 340,000; AlphaScreen GST-E1A/His-CtBP binding, 1536-well; hits give low values; control for the full effect not named in the record; in the data active means activity change below about -65%; inconclusive means about -30% to -65%; inactive means above about -30%; also: % is scaled to controls: 0 for no effect and ±100 for the full control effect; compound concentration not given in the record
#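 Homogeneous bead-based format: GST-tagged E1A captured on glutathione donor beads, His-tagged CtBP on nickel acceptor beads; compounds precede bead addition by 2 h at 37 °C.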
# Sfp inh = Sfp phosphopantetheinyl transferase inhibition; Q9F4F7; Biochemical Sfp PPTase activity, qHTS; Potency, µM, without a hit: max response, negative = inhibition, most hits filed as inhibitors; hit rate 3.5% among 310,000; AID 1490; active = well fitted inhibition curve with a large enough effect; inconclusive = small, poorly fitted or top-dose-only effect, or another doubt; inactive = no such curve, though single readings can be large or run the other way;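 also: the enzyme is Sfp with the accession as filed and its product quenches rhodamine fluorescence; potency is read from the fitted curve at half-maximal effect; 0% = enzyme reaction without inhibitor and -100% = no enzyme wells; top concentration of the series not given in the record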
#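 Step 1, compound plus 15 nM Sfp-PPTase, 15 min, room temperature. Step 2, add rhodamine-CoA (5 uM) and BHQ-2-YbbR (12.5 uM). Step 3, read 525/598 nm fluorescence at 0 and 30 min.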
# D2 agonist = human D2 receptor agonism in beta-arrestin assay; hit rate 0.084% among 360,000; activation, % (no concentration beside the values); DiscoveRx PathHunter D2 beta-arrestin, luminescence, 90 min; 100% = 57 uM dopamine signal; AID 624465; in the data active = activation above about 40%; inconclusive = about 15% to 40%; inactive = below about 15%; also: compound concentration not given in the record; the text of the record calls up to 30% inactive
# Target sequence (P14416 whole entry, looked up): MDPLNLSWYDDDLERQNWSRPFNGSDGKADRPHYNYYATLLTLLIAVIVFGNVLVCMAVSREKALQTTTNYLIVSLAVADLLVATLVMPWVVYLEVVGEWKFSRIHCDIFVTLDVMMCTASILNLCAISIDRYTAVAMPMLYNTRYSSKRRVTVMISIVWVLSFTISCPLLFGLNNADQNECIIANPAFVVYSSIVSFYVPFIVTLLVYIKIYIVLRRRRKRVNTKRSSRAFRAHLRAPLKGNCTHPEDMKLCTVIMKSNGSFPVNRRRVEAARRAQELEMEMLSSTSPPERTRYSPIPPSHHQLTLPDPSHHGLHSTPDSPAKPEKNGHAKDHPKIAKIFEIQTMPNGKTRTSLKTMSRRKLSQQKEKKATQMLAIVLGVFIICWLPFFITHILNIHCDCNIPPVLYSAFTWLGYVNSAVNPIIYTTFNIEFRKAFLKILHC
#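 Agonist mode: compounds alone added to overnight-plated D2 PathHunter cells for 90 min at 37 C, with 57 uM final dopamine (EC100) defining full response. Beta-arrestin recruitment detected by chemiluminescent reagent, read after 1 h at ambient temperature.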
# D2 PAM = potentiates the human D2 dopamine receptor allosterically; P14416; DiscoveRx D2 beta-arrestin cells, luminescence, 90 min; 100% = 57 uM dopamine signal; potentiation, % (concentration not given with the values); hit rate 0.23% among 360,000; AID 624464; active = potentiation of 50% or more; inconclusive = 30% to 50%; inactive = 30% or less;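 also: compound concentration not given in the record; tested on top of an EC20 dose of dopamine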
#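 PathHunter D2 cells, attached overnight at 37 deg C, received compound in DMSO plus dopamine at EC20 (50 nM final) for 90 min at 37 deg C. Beta-arrestin recruitment was read as luminescence after 1 h with detection reagent at ambient temperature.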
# * hit, by the source's call; ? = inconclusive; · = no result given; & = joins results of further samples; [ ] = dose if it differs, or a comment.
SMILES,TRPV1 potentiator,PINK1 expr mod,Six1-Eya2 inh,CtBP-E1A inh,Sfp inh,D2 agonist,D2 PAM
[O-]/[N+](=C\c1ccccc1)[C@@H]1CCCC[C@@H]1/[N+]([O-])=C/c1ccccc1,4,3.6%,-1,-1,-22%,-7.7,-6
Cc1cc(C)c(S(=O)(=O)NC2CCN(Cc3ccccc3)CC2)c(C)c1,0,0.4%,-16,·,11%,-3.4,-25
CCn1c(SCC(=O)NC2CC2)nnc1-c1cccc(OC)c1,-4,0.9%,5,0,11%,-5.9,-5
CCOCC(=O)NCc1ccc2c(c1)OCO2,1,-1.9%,16,10,-8%,-2.4,-3
CC(=O)c1ccc(S(=O)(=O)N2CCN(C(=O)c3ccc(-n4cncn4)c([N+](=O)[O-])c3)CC2)cc1,0,-0.7%,-1,-2,·,3.2,0
O=C(NC(Cc1c[nH]c2ccccc12)C(=O)O)/C(=C\c1ccc2c(c1)OCO2)NC(=O)c1ccccc1 (centres undefined),?,-1.0%,1,-1,15%,-4.4,1
O=C1CCN(Cc2ccccc2)C(=S)N1,·,-1.1%,0,5,·,-1.1,0
CC(=O)N1CCOc2ccc(S(=O)(=O)N3CCC(C(=O)NCc4ccccc4)CC3)cc21,14,2.1%,-3,-21,8%,-3.8,-7
COc1ccc2nc(NC(=O)CCn3cccc3)sc2c1,8,3.5%,2,0,8%,-4.9,-11
Cc1cccc(C)c1NC(=O)CN1C(=O)NC(C)(C2CC2)C1=O (centres undefined),·,1.2%,-1,-1,·,0.2,16
CCc1sc(C(=O)Nc2cc(Cl)ccc2N2CCCCC2)cc1C,10,-0.1%,11,-2,-5%,-1.4,-2
Cc1cccc(C(=O)NNC(=O)c2ccccc2Br)c1,6,0.4%,4,·,5%,0.4,-2
Cn1c(CCC(=O)Nc2cc(S(C)(=O)=O)ccc2Cl)nc2cc(S(=O)(=O)N3CCOCC3)ccc21,?,0.3%,13,-2,·,-0.9,-17
COc1ccc(C(=O)NC(=S)NNC(=O)c2ccccc2C)cc1,·,-0.3%,-21,-12,·,-3.6,-24
Cn1c(CCN2CCOCC2)nc2cc(NS(=O)(=O)c3ccccc3)ccc21,7,3.0%,5,-3,27%,-2.4,-5
NC(=O)C1CCN(C2=C(NS(=O)(=O)c3ccc(Br)cc3)C(=O)c3ccccc3C2=O)CC1,4,-0.7%,?,?,-8%,-4.8,-14
O=C(CN1CCN(S(=O)(=O)c2ccc(F)cc2)CC1)Nc1cccc(C(F)(F)F)c1,·,6.7%,2,8,10%,-0.2,-26
COc1ccc(Cl)cc1Nc1nc(NCCO)nc(N2CCCC2)n1,8,0.9%,5,-2,20%,-2.7,-13
CS(=O)(=O)Nc1ccc(C(=O)Nc2ccc(S(=O)(=O)Nc3nccs3)cc2)cc1,6,-2.7%,-1,-5,18%,-2.9,0
C=CC[C@@H](CC(=O)N(CCO)Cc1ccccc1)C(=O)N[C@H](COC(=O)[C@@H](CC=C)CC(=O)OC(C)(C)C)c1ccccc1,·,3.9%,14,-13,·,3.8,-29
O=[N+]([O-])c1cnn2cc(Br)cnc12,3,0.3%,4,·,23%,-6.7,-57
C/C(CC(=O)Nc1cc(Cl)ccc1Cl)=N\NC(N)=S,6,-2.4%,-1,-13,35µM*,-0.3,9
COc1ccc(Cn2c(=O)[nH]c3cc(OC)c(OC)cc3c2=O)cc1,16,8.6%,-1,·,-10%,-5.7,-23
COc1ccccc1CCNC(=O)c1ccc2nc[nH]c2c1,6,0.9%,3,4,9%,0.9,5
CCOc1ccc(S(=O)(=O)N2CCN(C(=O)c3cccnc3)CC2)cc1,-2,1.5%,8,1,14%,4.9,2
COC(=O)C[C@H]1c2ccccc2S(=O)(=O)N1Cc1ccc(OC)cc1,·,-0.7%,5,·,·,0.8,-3
CC1=C(C(=O)OCc2ccccc2)C(c2ccccc2)NC(=O)N1CCCCCC(=O)O (centres undefined),-9,0.7%,-1,2,-14%&-5%,-5.6,0
CCOC(=O)C1(Cc2cccc(OC)c2)CCN(CC2CC=CCC2)CC1 (centres undefined),-3,9.6%,-2,-13,10%,-5.2,-31
CCCn1c(=O)c(Br)cn(-c2ccccc2C)c1=O,?,1.6%,7,·,5%,-4.4,-16
COc1ccc(CNC(=O)CCNC(=O)c2ccc(C(C)(C)C)cc2)cc1OC,-35,0.6%,3,5,·,-2.3,12
CC(=O)N(CN1C(=O)c2ccc([N+](=O)[O-])cc2C1=O)c1ccc(F)cc1,?,-0.2%[38.3 µM],-2,9,-16%,2.4,?
Cc1ccc(OCCC(=O)OCC(=O)Nc2ccc(F)cc2)cc1,4,12%,5,2,·,-1.5,2
Cc1cc(C)c(OCC(=O)Nc2nnn(C)n2)c(Br)c1,7,-0.7%,1,-2,11%,-2.1,-33
O=C(c1ccc([N+](=O)[O-])cc1)N(Cc1ccc(Cl)cc1Cl)N1C(=O)CCCC1=O,0,-2.2%[38.3 µM],-18,-16,18%,4.9,13
COC(=O)c1ccccc1S(=O)(=O)N1CCC(C(=O)OC(C)C(=O)NC(N)=O)CC1 (centres undefined),-7,0.6%,4,·,23%,-2.9,4
COC(=O)c1ccccc1S(=O)(=O)N(Cc1cc2ccc(OC)cc2[nH]c1=O)CC1CCCO1 (centres undefined),3,2.1%,4,4,3%,-2.2,-13
Cc1ccc(S(=O)(=O)N(C)c2nc3ccccc3[nH]c2=S)cc1,6,0.0%,0,12,?,0.4,-3
CCN(CC)C(=O)c1cc2cc(Br)ccc2oc1=O,-4,?,1,1,10%,0.3,-1
O=[N+]([O-])c1ccccc1-c1ccc(/C=N/n2cnnc2)o1,5,-0.8%[38.3 µM],-6,-7,10%,-3.1,-4
Cc1nc(SCCC(C)C)c([N+](=O)[O-])[nH]1,13,-0.2%,22,0,10%,-6.9,-17
NNC(=O)c1ccc(COc2ccc(Br)cc2)o1,-30,-1.2%,-11,0,-7%,1.3,0
O=c1ccc2cc(S(=O)(=O)Nc3ccccc3F)ccc2o1,8,0.4%,17,0,8%,-3.3,1
Cn1c(OCC2CCCO2)nc2cc(-c3ccccc3)sc2c1=O (centres undefined),·,0.5%,4,0,·,5.6,-3
O=C(NCC1CCCN1S(=O)(=O)c1cccs1)c1ccc(Cl)cc1 (centres undefined),-9,0.1%,3,2,·,-3.9,4
CCOC(=O)C1=C(COC(=O)CCC(=O)c2ccc(C)cc2)NC(=O)NC1C (centres undefined),-6,1.8%,1,6,·,-0.8,-1
CN(CC(=O)N1CCN(c2ccccn2)CC1)S(=O)(=O)c1ccc2ccccc2c1,29,6.9%[38.3 µM],-7,13,5%,-1.2,-11
COC(=O)c1ccc(CC2(C)C(=O)Nc3ccc(-c4cccc(C(F)(F)F)c4)cc32)o1 (centres undefined),·,-0.8%,-5,-17,·,-1.5,0
CC(=O)c1cc(C#N)c(SCC(=O)OC(C)C)nc1C,-19,0.5%[38.3 µM],2,4,19%,-1.3,-3
COC(=O)CNC(=O)CN(c1ccc(OC)cc1OC)S(=O)(=O)c1ccccc1,11,1.2%,4,-11,·,-1.8,-1
CN(C1CCCCC1)S(=O)(=O)c1ccc(-c2ccccn2)s1,-12,-1.6%,13,13,-12%,-6.8,-4
CC1=NN(C(=O)c2ccncc2)C(=O)C1N=Nc1ccc2ccccc2c1 (centres undefined),·,-4.6%,0,0,·,-5.4,-18
Cc1ccc(CSCC(=O)N(C)CC(=O)Nc2ccc(Cl)c(Cl)c2)cc1,-2,14%,-1,10,·,0.3,3
CC1CCN(C(=O)CSCc2ccc(Cl)cc2)CC1,-14,5.4%,18,4,-4%,-1.6,0
CN(C)c1ccc(/C=C/c2ccc3ccccc3n2)cc1,14,?,28,·,?,-1.2,-1
COc1ccc(NC(=O)Nc2ccc(O)c3ccccc23)cc1,·,-1.6%,-5,-18,·,6.6,-4
Cc1[nH]nc2c1C(c1ccccc1)C1=C(CC(C)(C)CC1=O)N2 (centres undefined),-6,0.9%,-5,4,19%,-2.9,-19
CCOC(=O)C(=CNNc1c(C)csc1C(=O)OC)C(=O)OCC,-25,4.9%,-1,-2,-25%,0.9,-1
O=S(=O)(NCc1ccco1)c1ccc2c(c1)Cc1ccccc1-2,5,7.0%[38.3 µM],-2,-3,-82%,-0.7,-6
CCC(=O)N=c1sc2cc(F)cc(F)c2n1C,·,0.2%,4,8,·,4.5,-3
CCc1ccc(OCC(=O)O/N=C(\N)c2ccccn2)cc1,7,1.8%,1,·,7%,2.0,7
# New compounds follow:
SMILES,TRPV1 potentiator,PINK1 expr mod,Six1-Eya2 inh,CtBP-E1A inh,Sfp inh,D2 agonist,D2 PAM
CC(=O)c1cccc(NC(=O)NCc2ccc3c(c2)OCO3)c1,-10,1.2%,8,-1,5%,-3.7,-17
CC(C)c1csc(CN2CCN(CCc3ccccc3)C(CCO)C2)n1 (centres undefined),2,0.5%,-7,·,-14%,4.6,-5
CC(NCC(O)COc1ccc(S(=O)(=O)N2CCOCC2)cc1)c1ccccc1 (centres undefined),11,-1.2%,10,0,17%,-13,-11
Cc1ccnc(NC(=O)c2cccc(S(=O)(=O)Nc3ccc(C)cc3C)c2)c1,·,-2.0%,-5,-7,·,-1.2,-5
O=C1C=C(c2ccc3cc[nH]c3c2)C[C@@H](c2ccc3c(c2)OCO3)C1,-1,0.9%,-12,?,·,5.5,-8
CCOC(=O)c1cc(-c2ccccc2)sc1NC(=O)CCN1C(=O)c2ccccc2C1=O,-2,-0.2%,9,12,15%,-3.0,-13
NC1(CO)COC(c2ccccc2)OC1 (centres undefined),·,0.4%,-5,8,·,-1.9,-2
Cc1cccc(NC(=O)Cn2c(=O)n3nc(CCn4nc(C)cc4C)nc3c3ccccc32)c1,-5,1.7%[38.3 µM],0,7,4%,-1.4,2
CCN(CC)CCN(Cc1cc2ccc(C)cc2[nH]c1=O)C(=O)NC1CCCCC1,-2,-0.1%,-1,-4,13%,-2.1,-41
Cn1ncc([N+](=O)[O-])c1C(=O)Nc1cccc2ccccc12,-5,-2.0%,-2,-1,18%,0.6,-2

# Ordered by the number under D2 agonist (largest number first): some entries from above.
Structure	D2 agonist
C=CC[C@@H](CC(=O)N(CCO)Cc1ccccc1)C(=O)N[C@H](COC(=O)[C@@H](CC=C)CC(=O)OC(C)(C)C)c1ccccc1	3.8
Cc1cc(C)c(S(=O)(=O)NC2CCN(Cc3ccccc3)CC2)c(C)c1	-3.4
NC(=O)C1CCN(C2=C(NS(=O)(=O)c3ccc(Br)cc3)C(=O)c3ccccc3C2=O)CC1	-4.8

# Compounds as they come; about 3.7% have a hit in one of these screens.
